CSC inhib – blocks cancer stem cells. hit rate 1.1% among 300,000. inhibition, % at 7.5 µM. cancer stem cell-like cells viability, luminescence;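 active = mean at 75% or more and at least half the replicates too; inconclusive = mean and replicates disagree; tested in HMLE shEcad cells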;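 also: 0% = median of negative and 100% = median of positive control wells; the first replicate is given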
MT1-MMP act inh – MT1-MMP (human) activation inhibition | P50281 | HT1080 RFP-PRO-GFP cells, GFP/RFP ratio fluorescence, overnight; percent of plate control window, DMSO zero | GFP/RFP ratio change, % at 20 µM | hit rate 0.061% among 360,000;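 active = GFP/RFP ratio change of at least 30% with cell ATP level not reduced by more than half and red fluorescence within 50% of control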; also: strong numbers were not always called active
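Assay system – RFP-PRO-GFP reporter HT1080 cells · Compound dosing – single dose of 20 µM compound, 1% DMSO final · Incubation – overnight compound exposure at 37 °C · Measure – GFP/RFP fluorescence ratio · Benchmarks – DMSO wells and RFP-L50D-GFP cells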
PABP FP inh – blocks human PABP binding to poly(A) RNA | P11940 | AID 2014 | inhibition, % at 35 µM | fluorescence polarization | hit rate 1% among 290,000;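 active = 50% or more with normal probe brightness, or confirmed in later tests; inconclusive = above 50% with abnormal brightness, or retests that disagree; inactive = below 50% or failed in later tests; about a fifth of its hits are not listed in these tables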;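 also: calls also rest on retests at 20 µM and on dose response follow-up; controls were probe without protein and protein plus probe with vehicle; some compounds called inactive have numbers as strong as hits; many hits fall short of the cut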
Target sequence (P11940 whole entry, looked up): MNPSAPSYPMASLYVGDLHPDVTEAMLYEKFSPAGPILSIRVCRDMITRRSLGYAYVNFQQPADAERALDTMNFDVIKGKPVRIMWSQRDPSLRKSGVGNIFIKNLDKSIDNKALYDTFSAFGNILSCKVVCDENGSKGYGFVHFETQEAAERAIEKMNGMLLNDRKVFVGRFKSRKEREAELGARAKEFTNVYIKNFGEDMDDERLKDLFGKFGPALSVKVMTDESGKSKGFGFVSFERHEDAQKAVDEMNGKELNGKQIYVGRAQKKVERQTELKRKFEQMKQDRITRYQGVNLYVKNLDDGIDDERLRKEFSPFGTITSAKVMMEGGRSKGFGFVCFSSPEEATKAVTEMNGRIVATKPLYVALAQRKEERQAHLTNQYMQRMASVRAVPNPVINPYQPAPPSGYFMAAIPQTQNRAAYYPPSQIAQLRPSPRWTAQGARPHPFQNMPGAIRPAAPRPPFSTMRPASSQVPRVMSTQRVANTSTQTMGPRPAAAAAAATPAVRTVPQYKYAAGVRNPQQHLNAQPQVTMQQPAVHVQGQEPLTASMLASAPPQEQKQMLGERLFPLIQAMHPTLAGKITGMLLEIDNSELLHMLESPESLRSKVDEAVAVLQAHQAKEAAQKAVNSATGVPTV
Yeast UUG start – modulators of start codon recognition fidelity in yeast; S. cerevisiae UUG-firefly luciferase reporter, luminescence/redox ratio; activity score, % at 18.7 µM; hit rate 0.13% among 350,000;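 active = replicate mean at a twofold rise or more, about +100% in these data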;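 also: firefly luciferase made from a UUG start codon reports start codon fidelity; reporter light over untreated wells divided by growth signal over untreated wells; some hits fall short of that in this replicate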
Env fusion inh – HIV envelope-mediated fusion inhibition; HeLa-JRFL Env/CEM21 cell fusion, luciferase; inhibition, % at 12.3 µM; hit rate 1.1% among 360,000; AID 651610;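 active = mean replicate inhibition score of at least 50 and every replicate individually at or above 50; inconclusive = only one of the two criteria met; inactive = mean below 50 and not all replicates reaching 50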;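 also: 0% = plate neutral controls and 100% = maraviroc near 300 nM; one replicate is shown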
Rce1 inh – yeast Ras-converting enzyme inhibition; Q03530; yeast membranes, quenched prenylated peptide cleavage fluorescence; calls only; hit rate 0.27% among 290,000;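 active = fall in fluorescence gain of 50% or more versus controls, with final raw signal at or below 3038400; inconclusive = same 50% fall but final raw signal above 3038400; inactive = fall in fluorescence gain under 50%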;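 also: plate controls were neutral control wells for no effect and wells lacking membranes for full effect; tested at 10 µM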
Target sequence (Q03530 whole entry, looked up): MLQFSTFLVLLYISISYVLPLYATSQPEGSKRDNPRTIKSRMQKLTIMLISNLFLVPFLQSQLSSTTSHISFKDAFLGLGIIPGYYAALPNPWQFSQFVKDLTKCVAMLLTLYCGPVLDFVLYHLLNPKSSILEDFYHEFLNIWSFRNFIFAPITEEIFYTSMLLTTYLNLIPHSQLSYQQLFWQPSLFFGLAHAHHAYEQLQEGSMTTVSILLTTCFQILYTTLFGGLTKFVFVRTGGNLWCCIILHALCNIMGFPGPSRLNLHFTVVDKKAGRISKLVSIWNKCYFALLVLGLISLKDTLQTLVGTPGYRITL
eIF4H FP inh – inhibitors of RNA binding by human eIF4H. Q15056. inhibition, % at 35 µM. eIF4H fluorescence polarization binding assay. hit rate 0.94% among 290,000;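 active = 50% or more with normal probe brightness, or confirmed in later tests; inconclusive = above 50% with abnormal brightness, or retests that disagree; inactive = below 50% or failed in later tests; about a fifth of its hits are not listed in these tables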;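 also: calls also rest on retests at 20 µM and on dose response follow-up; 0% = protein and probe with vehicle and 100% = probe without protein; strong numbers were not always called active; many hits fall short of the cut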
MT1-MMP act inh RFP – also measured in MT1-MMP act inh; calls as there; RFP signal change, %; measured here: RFP expression control read;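 0 = vehicle wells; hits needed this value within 50% of zero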
Active calls of the source: *; i = inactive; u = inconclusive; x = not tested or not shown; + = active, no number; & = joins results of further samples. Not all compounds are listed. The share of hits here may be higher or lower than overall.

Below each compound: CSC inhib	MT1-MMP act inh	MT1-MMP act inh RFP	PABP FP inh	Yeast UUG start	Env fusion inh	Rce1 inh	eIF4H FP inh
[1] CC(Oc1ccc(Cl)cc1)c1ccnn1S(=O)(=O)c1ccc(Cl)cc1 (stereo not drawn)
 : x	-7	-3	-13	-16	29	i	-1
[2] CCN(c1ccccc1)S(=O)(=O)c1ccc(NCC2COc3ccccc3O2)nc1 (stereo not drawn)
 : 24	-7	-9	-2	-15	-135	i	-2
[3] O=C(O)C1CN(C(=O)c2ccccc2)c2cc(Cl)ccc2O1 (stereo not drawn)
 : -11	1	6	-1	-14	11	i	-5
[4] CC(=O)Nc1cc(C(F)(F)F)ccc1OCCOc1ccccc1
 : 20	11	0	x	1	-14	i	x
[5] COc1ccc(OC)c(NC(=O)c2cc(-c3cc(C)cc(C)c3O)n[nH]2)c1
 : x	-2	1	1	-24	-12	i	4
[6] CCCOc1ccc(C(=O)NC(=S)NCc2cccnc2)cc1
 : 7	4	-3	12	x	37	i	12
[7] O=C(NCCC1=CCCCC1)C1CCC(CNc2c(N3CCCC3)c(=O)c2=O)CC1 (stereo not drawn)
 : -15	-1	-3	1	x	-8	i	4
[8] CC[n+]1ccc(C[n+]2ccccc2)c2ccccc21
 : -11	-2	4	-2	x	-10	x	11
[9] COc1ccccc1-c1cc(C(=O)O)c2c(=O)n(C)c(=O)n(Cc3ccccc3)c2n1
 : 7	2	4	9	-7	15	+	2
[10] CC(=O)Cc1nsc(Nc2ccc(Cl)cc2)n1
 : -6	4	6	3	x	-11	i	-1
[11] NS(=O)(=O)c1ccc(N/N=C/C=C/c2ccccc2[N+](=O)[O-])cc1
 : 5	-1	-1	4	-9	-78	i	1
[12] Cc1cc2cc(CCNS(=O)(=O)c3ccc(F)cc3)c(=O)[nH]c2cc1C
 : 3	-4	-4	6	-18	4	i	-3
[13] CC(C)CCNC(=O)c1onc(CSc2nc3ccccc3[nH]2)c1C(=O)NCCC(C)C
 : 9	-4	-8	-1	-11	7	i	3
[14] O=C(Nc1ccc2c(c1)OCO2)c1ccc(NC2CC2)c([N+](=O)[O-])c1
 : 66	6	-2	-2	0	26	i	10
[15] COC(=O)CCC(=O)OC1(C)C(=O)C2=CN(Cc3ccc4c(c3)OCO4)C(c3ccc(OC)cc3)=CC2=C(Br)C1=O (stereo not drawn)
 : -4	x	x	x	-2	x	i	x
[16] CC(=O)N(C)c1ccc(NC(=O)CCN2C(=O)c3ccccc3C2=O)cc1
 : -13	-1	1	13	-11	7	i	0
[17] CCOC(=O)N1CCC(NC(=O)c2cc3c(-c4ccc(OC)c(OC)c4)nn(C)c3s2)CC1
 : 8	17	-3	-6	-8	-27	i	-7
[18] CCCCc1ccc(S(=O)(=O)NC(=O)C2(C)CCN2C(=O)c2ccccc2)cc1 (stereo not drawn)
 : x	3	9	x	0	-2	x	x
[19] C=CCNC(=S)NNC(=O)COc1ccc2cc(Br)ccc2c1
 : 61	5	-2	-10	-19	-38	i	5
[20] CC1CC(=O)C=C(O)C1C(=O)OC(C)(C)C (stereo not drawn)
 : -5	-4	-2	6	-5	x	i	5
[21] Cc1cccc(NC(=O)C(C)Sc2nnc(-c3cccnc3)o2)c1 (stereo not drawn)
 : -16	2	1	x	-15	x	x	x
[22] COCCNC(=S)N/N=C/c1c2ccccc2cc2ccccc12
 : 19	-7	-4	4	-22	6	i	5
[23] Cc1ccc(F)cc1NC(=O)CCc1c(C)nn(-c2ccc(N3CCCCC3)nn2)c1C
 : -13	-2	-2	10	-17	-24	i	-9
[24] Cc1ccccc1N(CC(=O)NC1CCCC1)C(=O)c1csnn1
 : -5	-5	-3	-8	x	14	i	-7
[25] CC1(C)Cc2c(cnn2-c2ccccc2)-c2c1c1ccccc1n2CC(O)CBr (stereo not drawn)
 : 18	-9	-11	-13	x	x	i	-1
[26] COCCn1c(=NC(=O)c2cccs2)sc2cc(NC(C)=O)ccc21
 : -16	-4	-2	-10	x	12	i	-5
[27] CCOC(=O)c1ccc(NC2Nc3cc(C)nn3S2)cc1 (stereo not drawn)
 : -24	-3	-4	-2	4	7	i	4
[28] CC1(C)Cc2ccccc2C(=NC(Cc2c[nH]c3ccccc23)C(=O)O)N1 (stereo not drawn)
 : -5	-3	4	8	-12	-16	i	4
[29] COc1ccc(C2=CC(c3ccco3)n3ncnc3N2)cc1 (stereo not drawn)
 : x	-91	6	-9	x	x	x	u
[30] O=C(NNS(=O)(=O)c1ccc(F)cc1)c1cc2ccccc2cc1O
 : 11	2	3	8	-12	17	i	4
[31] C=CCNC(=O)COc1cc(C)cc(C)c1C
 : -4	-1	3	1	-4	15	i	3
[32] COC(=O)C1(C)NC(c2ccc(O)cc2)C2C(=O)N(c3ccc4c(c3)OCCO4)C(=O)C21 (stereo not drawn)
 : 2	-1	-4	-2	-23	-59	i	-2
[33] COC(=O)C1C(=O)CC(C)(O)C(C(=O)OC)C1c1ccccc1F (stereo not drawn)
 : -2	-4	3	-7	-14	x	i	5
[34] Cc1ccc(S(=O)(=O)Cn2nnnc2CN2CCN(Cc3ccc4c(c3)OCO4)CC2)cc1
 : 6	-2	-6	-11	-18	-9	i	-13
[35] CC(C)c1nnc(NC(=O)CCC(=O)N2CCN(C3c4ccccc4-c4ccccc43)CC2)s1
 : -4	2	1	-7	-5	15	i	0
[36] COc1ccccc1OCC(=O)Nc1c2c(nn1-c1ccccc1)CS(=O)(=O)C2
 : -9	0	5	11	-3	2	i	3
[37] O=C(NC12CC3CC(CC(C3)C1)C2)N1CCC(O)(c2ccc3c(c2)OCO3)CC1
 : 1	5	3	10	-2	2	i	-9
[38] COC(=O)c1ccccc1S(=O)(=O)N1CCC(c2nc3ccccc3o2)CC1
 : -3	7	0	-4	5	42	i	-11
[39] Cc1c(/C=N/O)c2ccccn2c1C(=O)c1ccc(F)cc1
 : 18	5	-1	-2	-10	30	i	3
[40] Cc1ccc(NS(=O)(=O)c2cccc(C(=O)NCCCn3ccnc3)c2)cc1
 : 21	2	-2	x	x	0	i	x
[41] O=c1c2nccnc2[nH]c(=S)n1Cc1ccccc1
 : -8	-1	4	9	x	7	i	6
[42] O=C(Cn1c(-c2ccccc2)noc1=O)NCc1ccccc1
 : -11	-6	3	-6	-16	-163	i	-7
[43] COc1nccnc1NS(=O)(=O)c1ccc(NS(=O)(=O)c2ccc(NC(C)=O)cc2)cc1
 : -2	6	6	-3	-10	-15	i	-6
[44] CCOc1ccccc1CNS(=O)(=O)c1cc(-c2cc(C)no2)ccc1C
 : -4	0	-3	3	-3	-1	i	1
[45] c1ccc(CCc2nc(-c3ccccn3)no2)cc1
 : -2	0	6	-3	-14	x	i	-12
[46] O=C1c2cccnc2C(Nc2ccc(Cl)cc2)N1Cc1cccs1 (stereo not drawn)
 : x	-1	2	-7	-16	-1	i	0
[47] CC(C)(C)C(=O)NC(CC(=O)O)c1ccccc1 (stereo not drawn)
 : x	-1	2	7	4	4	i	-8
[48] NNC(=O)c1ccncc1
 : x	2	4	0	1&-13	-1	i	-6
[49] Cc1ccc(S(=O)(=O)Nc2cc(C)c(O)c(Sc3n[nH]c(C)n3)c2)cc1
 : 7	1	-1	2	-6	1	i	12
[50] CCCC(=O)Nc1cc(-c2nc3ncccc3o2)ccc1Cl
 : -1	1	3	-3	-4	-17	i	-9
[51] O=C(CCl)NNC(=O)c1c(O)c2ccccc2[nH]c1=O
 : 5	0	-1	-2	-23	8	i	9
[52] Cc1cc(C)c(/C=C(\C#N)S(=O)(=O)c2ccccc2)[nH]1
 : 7	1	-2	-8	x	11	i	-6
[53] O=C1C[C@@H]2c3c(cccc3CN1Cc1ccccc1Cl)C[C@@H](O)[C@H]2O
 : x	-3	-3	x	-2	-19	x	x
[54] O=C(NCCSc1ncc(-c2ccc(F)cc2)[nH]1)c1ccco1
 : -11	6	1	x	x	-74	i	x
[55] N#C/C(=C/c1cc(Cl)c(O)c(Cl)c1)C(=O)N1CCCCC1
 : -5	1	2	3	1	-7	i	-3
[56] COCCCn1c(-c2cccc(Cl)c2)nc2c1c(=O)[nH]c(=O)n2Cc1ccccc1
 : 12	-2	-4	7	-13	16	i	16
[57] COc1ccc(N2CCn3c2nc2c3c(=O)n(CCCc3ccccc3)c(=O)n2C)c(OC)c1
 : 0	1	-20	6	-1	73*	i	2
[58] Cc1onc(-c2ccccc2Cl)c1C(=O)Nc1cccc2nsnc12
 : 9	-3	-5	-7	-9	x	i	-10
[59] CCOC(=O)C1(Cc2ccccc2Cl)CCN(S(C)(=O)=O)CC1
 : 47	0	-1	-3	x	17	i	-3
[60] Clc1ccc(Cc2noc(Cc3ccccc3)n2)cc1Cl
 : 20	-9	-2	4	-4	-47	i	-3

(further entries)
Below each compound: CSC inhib	MT1-MMP act inh	MT1-MMP act inh RFP	PABP FP inh	Yeast UUG start	Env fusion inh	Rce1 inh	eIF4H FP inh
[61] COc1ccc(/C=C/C(=O)OCC(=O)NC2CCCC2)c(OC)c1
 : -2	2	4	x	-14	x	x	x
[62] O=C(NCc1ccccn1)c1cc2ccccc2oc1=O
 : 1	1	-1	14	-16	x	i	-7
[63] O=C(CCS(=O)(=O)Cc1ccc(Cl)cc1)NCCCN1CCOCC1
 : -8	-2	-4	4	-12	x	i	-5
[64] COC(=O)c1ccc(OC(=O)/C=C/c2ccco2)cc1
 : x	3	9	10	-41	-4	i	10
[65] N/C(=N\OC(=O)c1cccs1)c1cccc([N+](=O)[O-])c1
 : -7	-2	-5	-10	0	-47	x	-4
[66] COc1ccc(C(=O)NCCN2C(=O)S/C(=C\c3cccnc3)C2=O)cc1[N+](=O)[O-]
 : -5	4	-3	10	x	11	i	-6
[67] COc1cc2cc(CN(CCCN3CCOCC3)Cc3nnnn3Cc3ccccc3)c(=O)[nH]c2cc1OC
 : -10	2	5	-8	x	0	i	3
[68] CC(=O)Nc1cc(NC(=O)C2C3C=CC(C3)C2C(=O)O)ccc1Cl (stereo not drawn)
 : x	3	-2	8	-12	-8	i	-4
[69] COc1cccc(CNC(=O)Cc2c(C(=O)O)[nH]c3ccccc23)c1
 : -9	-1	3	15	-2	-6	i	-10
[70] CC1(C)Cc2nc3sc(C(=O)NCCCO)c(N)c3cc2CS1
 : x	0	-1	0	x	-11	x	7
[71] CC(C)c1nc2oc3c(NCc4cccnc4)ncnc3c2c2c1CCC2
 : 33	1	-9	5	-14	-69	i	-11
[72] Cc1cc(C)n(-c2nc(C)nc(NCc3ccccc3)n2)n1
 : -9	-4	-6	-6	x	x	i	-13
[73] CC1CCCN(CCCNC(=O)C2CC(=O)N(c3ccc(F)c(Cl)c3)C2)C1 (stereo not drawn)
 : 14	6	4	10	x	x	i	2
[74] C/C(=N/NC(=O)c1ccc(O)cc1)c1cccc([N+](=O)[O-])c1
 : 9	1	2	-3	x	-43	i	-13
[75] C=CCNC(=S)NNC(=O)c1ccc(OCCC)cc1
 : -17	-3	-4	-12	-9	x	i	2
[76] CC(=O)OCC1OC(Nc2cccc(C)c2)C(OC(C)=O)C(OC(C)=O)C1OC(C)=O (stereo not drawn)
 : -7	2	1	-15	x	0	i	-1
[77] COc1ccc(-c2noc(CCCC(=O)Nc3cccnc3)n2)cc1OC
 : -11	1	-7	-1	x	0	i	-9
[78] COc1ccccc1C1NC(=O)NC(C)=C1C(=O)OC1CCCC(C)C1 (stereo not drawn)
 : -4	-3	-10	-1	-6	-37	i	-1
[79] CCN1CCN(C(=O)C2(NC(=O)Nc3cccc(F)c3)CCCCC2)CC1
 : 12	2	0	0	13	x	x	-8

Screens: PubChem, several laboratories
